# Screens as filed in PubChem BioAssay.
# Menin-MLL FL inh: displaces fluorescein MLL peptide from human menin; Fluorescence polarization, fluorescein-MLL peptide displacement from menin; FP activity change, % at 61.4 µM; 290,000 tested, under 10 active; AID 1766; inconclusive = falling polarisation curve, or a change in total fluorescence; inactive = total fluorescence flat and polarisation flat or rising; no compound was filed as active; the % refers to the polarisation; negative = inhibition;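 also: % of control where 0% means no effect; inhibitors lower the polarisation; unlabelled MLL peptide was the positive control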
# Numbers without * were called inactive; ? = inconclusive; & = joins results of further samples; [ ] = another dose, or the depositor's remark. An excerpt. The share of hits here may be higher or lower than overall.
SMILES,Menin-MLL FL inh
CCN1C[C@]2(C)CC[C@H](O)[C@@]34C5C[C@@H]6[C@@H](OC)C[C@@](O)(C5[C@H]6O)[C@@H](CC23)[C@@H]14 (some centres not stated),-13
CCN1C[C@]2(C)CC[C@H](OC)[C@]34C5C[C@@H]6CC[C@@](O)(C5C(=O)O6)C(C13)[C@@H](OC(=O)c1ccccc1)C24,-3.0
C[Se]C[C@H](N)C(=O)O,5.3
CC[N+](C)(CC)CCC[n+]1c(-c2ccccc2)c2cc(N)ccc2c2ccc(N)cc21,?
CN1C[C@@H](CS(=O)(=O)N(C)C)C[C@@H]2c3cccc4c3c(cn4C)C[C@H]21,-3.7
N#CC(=Cc1ccc(O)c(O)c1)C(N)=S,?
CC(=O)O[C@H]1C[C@@H]2CCC3C(CC[C@@]4(C)[C@H]3C[C@H]([N+]3(C)CCCCC3)[C@@H]4OC(C)=O)[C@@]2(C)C[C@@H]1[N+]1(C)CCCCC1 (some centres not stated),1.4
COc1ccc2c3c1O[C@H]1C(=O)CC[C@@]4(O)C(C2)N(CC2CC2)CCC314 (some centres not stated),-3.5
Cc1ccsc1C(=O)C1CCCN(Cc2cnc(N(C)C)s2)C1 (configuration not stated),-2.3
COc1cc(C=C(C#N)C#N)cc(O)c1O,?
CN1CCCC2(CCN(C(=O)Oc3ccccc3)CC2)C1,0.0
ClC(Cl)(Cl)Cl,-0.9
CO/C1=C\C(C)=C\[C@@H](C)[C@@H](O)[C@@H](C)C/C(C)=C/C=C\[C@H](OC)C([C@@H](C)[C@@H](O)[C@H](C)[C@@]2(O)C[C@@H](O)[C@H](C)C(C(C)C)O2)OC1=O (some centres not stated),1.5[2.29 µM]
Clc1ccccc1C(c1ccccc1)(c1ccccc1)n1cccn1,2.9
NP(N)(=O)NC(=O)c1ccc(F)cc1,-1.2
CN1CCCC2(CCN(C(=O)c3ccncc3)CC2)C1,-1.6
Clc1ccc(C2CC3CCC2N3)cn1 (configuration not stated),-0.3
NC(N)=NCCCCCCCCCCN=C(N)N,?
CC1C(=O)OC2C(O)C34C5OC(=O)[C@@]3(OC3OC(=O)[C@H](O)[C@]34C(C(C)(C)C)C5O)[C@]12O (some centres not stated),-2.1
C[C@]12CCC3C(CCC4=C(Cl)C(=O)CC[C@@]43C)C1CCC2O (some centres not stated),-8.4
C/C(O)=C(/C#N)C(=O)Nc1cc(Br)ccc1Br,?
C[C@@H]1CC[C@H]2[C@H](C)[C@H]3CC[C@@]4(O)[C@@H]5CC(=O)[C@H]6CC(=O)CC[C@]6(C)[C@H]5C[C@H]4[C@@H]3CN2C1,-0.7
O[C@@H]1[C@H](O)[C@H]2[C@@H](O)CCN2C[C@@H]1O,-3.7
CC1O[C@@H](OC2CC[C@@]3(C=O)C4CC[C@]5(C)C(C6=CC(=O)OC6)CC[C@@]5(O)C4CC[C@]3(O)C2)C(O)C(O)C1O (some centres not stated),-1.5
COC1=C[C@]23CCCN2CCc2cc4c(cc2[C@@H]3[C@@H]1O)OCO4,-0.9

# Structural class: the entries above containing a carbonyl joined to an NH by a bond outside any ring
SMILES,Menin-MLL FL inh
NP(N)(=O)NC(=O)c1ccc(F)cc1,-1.2
C/C(O)=C(/C#N)C(=O)Nc1cc(Br)ccc1Br,?

# (list continues)
SMILES,Menin-MLL FL inh
COc1ccc(C2Oc3c(I)c(OC)cc(OC)c3CC2O)cc1OC (configuration not stated),3.1
CCCCCCCCCCCCCCCC(=O)OC[C@H](COP(=O)([O-])OCC[N+](C)(C)C)OC(C)=O,-2.2
COC(=O)[C@@]1(OC)C[C@@H]2O[C@@]1(C)n1c3ccccc3c3c4c(c5c6ccccc6n2c5c31)C(=O)N(C)C4,0.6[11.7 µM]
c1ccc(N=Nc2ccccc2)cc1,-5.3
CN(N=O)c1ccc(O)c(O)c1,-4.5
C[C@]12CC[C@H]3[C@@H](CCC4C[C@H](O)CC[C@@]43C)[C@@H]1CC[C@@H]2O (some centres not stated),-2.7
CP(=O)(O)C1=CCNCC1,2.5
O=C(NC(=O)c1c(F)cccc1F)Nc1cc(Cl)c(OC(F)(F)C(F)C(F)(F)F)cc1Cl (configuration not stated),1.8&-7.8
S=C=NCc1ccccc1,-2.1
C[C@@H]1O[C@@H](O[C@H]2C[C@@H](O)[C@@]3(CO)[C@H]4[C@H](O)C[C@]5(C)[C@@H](C6=CC(=O)OC6)CC[C@]5(O)[C@H]4CC[C@@]3(O)C2)[C@@H](O)[C@H](O)[C@H]1O,-3.7
O=C(Nc1ccc(Br)cc1)c1cc(Br)cc(Br)c1O,2.4
COC(=O)[C@@]1(O)C[C@@H]2O[C@@]1(C)n1c3ccccc3c3c4c(c5c6ccccc6n2c5c31)C(=O)NC4,3.6
N#CC(C#N)=Cc1ccc([N+](=O)[O-])c(O)c1,-0.9&-3.2
O=c1n(Cl)c(=O)n(Cl)c(=O)n1Cl,4.8
c1ccc(C2(N3CCCC3)CCCCC2)cc1,12
COc1cc2c(cc1OC)-c1c(OC)c(OC)c(C=O)c3c1[C@H](C2)N(C)CC3,-1.1
C[C@]12N[C@@H](Cc3ccccc31)c1ccccc12,?
CN1CC[C@@]23CCCCC2C1Cc1ccc(O)cc13 (some centres not stated),-6.2
CCC(C)C(=O)c1c(O)c(C)c2oc3c(C)c(O)c(C(=O)C(C)CC)c(O)c3c2c1O (configuration not stated),0.0
CCOc1ccc2cc(C#N)c(=O)oc2c1,20&17
Oc1ccc2c3c1O[C@H]1c4[nH]c5c(c4C[C@@]4(O)[C@@H](C2)N(CC2CC2)CC[C@]314)C[C@@]1(O)[C@H]2Cc3ccc(O)c4c3[C@@]1(CCN2CC1CC1)[C@H]5O4,2.1
C=C1Nc2ccccc2C(=O)N1c1ccccc1C,-2.4
NC(CC(=O)O)C1CCCCC1 (configuration not stated),-3.8
CCN1C[C@@]2(COC)[C@H]3[C@@H](OC)[C@H]4C1[C@@]3([C@H](OC)C[C@@H]2O)[C@H]1C[C@@]2(O)[C@@H](OC(=O)c3ccccc3)[C@@H]1[C@@]4(OC(C)=O)[C@H](O)[C@@H]2OC,1.6[24.8 µM]
O=C1C(I)=CC(=C(c2cc(I)c(O)c(I)c2)c2ccccc2C(=O)O)C=C1I,18

# Other structures.
SMILES,Menin-MLL FL inh
CCc1cccc(C)c1N(C(=O)CCl)C(C)COC (configuration not stated),-6.9
Cc1cc(C)cc(C(=O)OC2C[C@H]3CC[C@@H](C2)N3C)c1 (some centres not stated),42[activator]
CCCCC/C=C\C=C\[C@H](CCCCCCCC(=O)O)OO,-1.8
CN1C(=O)CCS(=O)(=O)[C@H]1c1ccc(Cl)cc1,-19
CC(C)C[C@H](NC(=O)CNC(=O)[C@H](CCC(N)=O)NC(=O)[C@H](Cc1ccc(O)cc1)NC(=O)[C@@H](NC(=O)[C@H](Cc1ccc(O)cc1)NC(=O)CNC(=O)[C@@H](N)CCCN=C(N)N)C(C)C)C(=O)O,-3.8
C[C@]12Cc3nonc3C[C@@H]1CC[C@@H]1[C@@H]2CC[C@@]2(C)[C@H]1CC[C@]2(C)O,5.3
CN(C)C1C(=O)C(C(N)=O)C(=O)C2(O)C(=O)C3C(=O)c4c(O)cccc4C(C)(O)C3C(O)C12 (configuration not stated),?
Cc1nn(C)c(C)c1-c1cccc2c1CCC(N(C)C)C2 (configuration not stated),-2.1
C=C(C)C1Cc2c(ccc3c2OC2COc4cc(OC)c(OC)cc4C2C3=O)O1 (configuration not stated),16
C=C[C@H]1CN2CC[C@H]1C[C@H]2c1[nH]c2ccccc2c1CCO,-1.3
CCCC[C@H]1C(=O)O[C@H](C)[C@H](NC(=O)c2cccc(NC=O)c2OC)C(=O)O[C@@H](C)[C@@H]1OC(=O)CC(C)C,-7.5&-5.7
C[C@@]12CC(=O)[C@H]3[C@@H](CCC4=CC(=O)CC[C@]43C)[C@H]1CCC2=O,-1.9[24.8 µM]
CN1C(=S)CN=C(c2ccccc2)c2cc(Cl)ccc21,5.9
CN1CCc2cc3c(cc2[C@@H]1O)OCO3,1.5[24.8 µM]
C[C@@]12CCC(=O)C[C@@H]1CC[C@@H]1[C@@H]2CC[C@]2(C)C(=O)CC[C@@H]12,-0.6
CCCn1c(=O)c2[nH]c(C3CCCC3)nc2n(CCCOC(=O)c2ccc(S(=O)(=O)F)cc2)c1=O,-0.8
O=C1C=C2C=CC3C[C@@]2(O1)C1CCCCN31 (some centres not stated),2.2
CN(C)C1C(=O)C(C(N)=O)=C(O)[C@@]2(O)C(=O)C3=C(O)c4c(O)cccc4[C@](C)(O)C3C(O)C12 (some centres not stated),?
C[C@@]12CCC(OS(=O)(=O)O)C[C@@H]1CCC1C2CC[C@]2(C)C(=O)CCC12 (some centres not stated),0.7
C[C@H]1O[C@@H](O[C@H]2[C@@H](O)C[C@H](O[C@H]3[C@@H](O)C[C@H](O[C@H]4CC[C@]5(C)C6CC[C@]7(C)[C@@H](C8=CC(=O)OC8)CC[C@]7(O)C6CC[C@@H]5C4)O[C@@H]3C)O[C@@H]2C)C[C@H](O)[C@@H]1O (some centres not stated),-6.3
c1ccc2sc(SNC3CCCCC3)nc2c1,-4.1
N#CC(C#N)=Cc1ccc(-c2ccccc2)o1,?
CCC(CO)NC(=O)[C@@H]1C=C2c3cccc4[nH]cc(c34)C[C@H]2N(C)C1 (some centres not stated),?
N[C@H](C(=O)O)c1cc(=O)[nH]o1,?
CCOC(OCC)P(=O)(O)CCCN,-13

# 2 consecutive compounds already listed, for reference:
SMILES,Menin-MLL FL inh
N[C@H](C(=O)O)c1cc(=O)[nH]o1,?
CCOC(OCC)P(=O)(O)CCCN,-13

# Returning to the listing with the three entries that preceded the break.
SMILES,Menin-MLL FL inh
CCC(CO)NC(=O)[C@@H]1C=C2c3cccc4[nH]cc(c34)C[C@H]2N(C)C1 (some centres not stated),?
N[C@H](C(=O)O)c1cc(=O)[nH]o1,?
CCOC(OCC)P(=O)(O)CCCN,-13
C[C@@H]1O[C@@H](O[C@H]2C[C@@H](O)[C@]3(CO)[C@@H]4C(CC[C@]3(O)C2)[C@@]2(O)CC[C@H](C3=CC(=O)OC3)[C@@]2(C)C[C@H]4O)[C@H](O)[C@H](O)[C@H]1O (some centres not stated),0.3&28
COc1cc(N)c(Cl)cc1C(=O)N[C@@H]1CN2CCC1CC2,4.5
COc1cc2c3cc1Oc1cc(ccc1O)C[C@@H]1c4c(cc(OC)c(O)c4Oc4cccc(c4)C[C@H]3N(C)CC2)CC[N+]1(C)C,-2.3[24.8 µM]
CCC1CN2CCC1CC2C(O)c1ccnc2ccc(OC)cc12 (configuration not stated),-8.7
CN(C)C(=O)Oc1cc(OC(=O)N(C)C)cc([C@@H](O)CNC(C)(C)C)c1,-0.4[24.8 µM]
C[N+]1(CCC(C(N)=O)(c2ccccc2)c2ccccc2)CCCCC1,-4.0
CC[C@]12CCCN3CCC4(c5ccccc5NC4C(C(=O)O)C1)C32 (some centres not stated),2.3
CC1=C2C(=COC(C)C2C)C(=O)C(C(=O)O)=C1O (configuration not stated),?
COC(=O)[C@H]1[C@@H](c2ccccc2)[C@@]2(c3ccccc3)Oc3ccccc3[C@@]1(O)[C@@H]2O,8.0[11.7 µM]
C[C@@H]1O[C@H](O[C@@H]2C=C3CC[C@H]4[C@@H](CC[C@]5(C)[C@@H](c6ccc(=O)oc6)CC[C@]45O)[C@@]3(C)CC2)[C@@H](O)[C@H](O)[C@@H]1O,-7.0[24.8 µM]
O=C1NC(=O)c2c1c1c3ccccc3[nH]c1c1[nH]c3ccccc3c21,?
COc1ccc(N2C(=O)NC(=O)/C(=C/c3ccc4c(c3)Cc3ccccc3-4)C2=O)cc1,?
CCCN1[C@H](C(=O)OC)C[C@@H]2CC[C@@H](O)C[C@@H]21,-21
CCCC(=O)O[C@@H]1[C@@H](C)[C@@]2(O)[C@@H](C=C(CO)C[C@@]3(O)C(=O)C(C)=C[C@@H]23)[C@@H]2C(C)(C)[C@]12OC(=O)CCC,3.3
CCCCCCCCCC(=O)O[C@H]1CC[C@H]2[C@@H]3CCC4=CC(=O)CC[C@]4(C)[C@H]3CC[C@]12C,3.0
CN1CCC2(CC1)CCN(C(=O)c1ccco1)CC2,1.9
C[C@@H](CO)NC(=O)[C@@H]1C=C2c3cccc4[nH]cc(c34)C[C@H]2N(C)C1,?
c1cncc([C@H]2CCCCN2)c1,?
C[N+]1(C)CCCCC1COC(=O)C(O)(c1ccccc1)c1ccccc1 (configuration not stated),4.9
CC(C)=CCCC1(C)C=Cc2c(O)c3c(c(CC=C(C)C)c2O1)OC12C(CC4CC1C(C)(C)OC2(C/C=C(/C)C(=O)O)C4O)C3=O (configuration not stated),8.7
O=C(Nc1ccccc1)N1CCCC2(CCN(C(=O)Oc3ccccc3)CC2)C1,-0.3
COC(=O)[C@@H]1C[C@H](OC(C)=O)C(=O)[C@H]2[C@@]1(C)CC[C@H]1C(=O)O[C@H](c3ccoc3)C[C@]21C,3.9&-7.4
OC[C@@H]1[C@@H](O)[C@H](O)[C@H]2[C@@H](O)CCN21,-2.2
CCOC(=O)C1C(C=C(C)C)C1(C)C (configuration not stated),2.6

# Fetched by compound from the entries so far (four):
SMILES,Menin-MLL FL inh
COc1ccc2c3c1O[C@H]1C(=O)CC[C@@]4(O)C(C2)N(CC2CC2)CCC314 (some centres not stated),-3.5
ClC(Cl)(Cl)Cl,-0.9
C[C@@]12CCC(OS(=O)(=O)O)C[C@@H]1CCC1C2CC[C@]2(C)C(=O)CCC12 (some centres not stated),0.7
CCOC(OCC)P(=O)(O)CCCN,-13
